# High-throughput results (PubChem)
# gsp antag: gsp mutant antagonism; gsp-mutant cells, cAMP HTRF, 30 min; control for the full effect not named in the record; 0.4% of 340,000 active; Potency, µM (doses to about 76.9 µM), for the others: at the top dose activity change, negative = inhibition, usual class: inhibitors; active = falling curve of any shape with a large fitted effect; inconclusive = falling curve, mostly with a smaller effect; inactive = flat or rising curve; cell line not stated here;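 also: intracellular cAMP measured with PDE inhibitor Ro 20-1724 present during compound exposure; potency is read from the fitted curve at half-maximal effect; % is scaled to controls: 0 for no effect and ±100 for the full control effect; nearly all actives have a fitted effect of over 65% in size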
#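 HTRF cAMP read-out (cAMP-d2 plus anti-cAMP antibody-K in lysis buffer, 30 min RT). Before lysis, cells are exposed to compounds with […] for 30 min at 37C in DPBS containing Ca/Mg, BSA and Tween 20.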
# Menin MLL FP FL: displaces fluorescein MLL peptide from human menin. Fluorescence polarization, fluorescein-MLL peptide displacement from menin. 290,000 tested, under 10 active. FP activity change, % at 61.4 µM; inconclusive = falling polarisation curve, or a change in total fluorescence; inactive = total fluorescence flat and polarisation flat or rising; no compound was filed as active; the % refers to the polarisation; negative = inhibition;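 also: % of control where 0% means no effect; inhibitors lower the polarisation; unlabelled MLL peptide was the positive control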
# gsp ag: gsp mutant agonism | 0.13% of 340,000 active | gsp mutant cells, cAMP HTRF, 30 min; control for the full effect not named in the record | Potency, µM (titrated, usually from 76.9 µM), for the others: at the top dose activation (cAMP increase), actives largely listed as activators; active = well fitted activation curve with a large enough effect; inconclusive = small, poorly fitted or top-dose-only effect, or another doubt; inactive = no such curve, though single readings can be large or run the other way; cell line not stated here;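 also: phosphodiesterase inhibitor Ro 20-1724 added with compounds to block cAMP breakdown; potency is read from the fitted curve at half-maximal effect; nearly all actives have a fitted effect of over 60% in size; about a fifth of the inactives were tested at one dose only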
#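 Cells stably selected in G418 were plated at 2000/well, grown 16-24 hr, then given compounds in DMSO with the PDE inhibitor […] (300 uM solution added) for 30 min at 37C; cAMP was read by HTRF.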
# ClpP mod: qHTS Assay for Activators of ClpP. ATP-dependent Clp protease proteolytic subunit (Bacillus subtilis (strain 168)), P80244. purified B. subtilis ClpP, FRET peptide cleavage, 20 min. Potency, µM (highest dose often 57.5 µM), for the others: at the top dose activity change, negative = active. 1.9% of 340,000 active. AID 651965, 2013; active = well fitted falling curve with a large enough effect; inconclusive = small, poorly fitted or top-dose-only effect; inactive = no such curve, though single readings can be large or run the other way; also: potency is read from the fitted curve at half-maximal effect; the source files actives as falling curves though it sought activators and does not explain the sign; nearly all actives have a fitted effect of over 65% in size; many hits overshoot -100%
# Target sequence (P80244 whole entry, looked up): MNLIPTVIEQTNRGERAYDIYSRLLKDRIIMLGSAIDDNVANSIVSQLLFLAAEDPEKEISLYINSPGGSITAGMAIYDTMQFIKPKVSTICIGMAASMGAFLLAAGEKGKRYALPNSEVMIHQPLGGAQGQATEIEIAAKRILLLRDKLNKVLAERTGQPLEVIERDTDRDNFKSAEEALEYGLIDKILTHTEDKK
#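 Purified B. subtilis ClpP, 10 microg/mL final in Tris/HCl pH8 with KCl, BSA, glycerol and Tween-20, cleaved an Abz/nitrotyrosine-quenched decapeptide. Fluorescence (ex 320, em 430) was read at 0 and 20 min at room temperature. Delta was normalized to 5.8 microM ADEP and DMSO/no-enzyme controls.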
# TRPML1 inh: blocks the human TRPML1 channel. AID 624415. 0.02% of 390,000 active. Q9GZU1. TRPML1-inducible cells, Ca2+ dye fluorescence, FDSS; active compounds read low; inhibition of EC80 agonist-evoked calcium signal. activity change, negative = inhibition, % (concentration not given with the values); in the data active means activity change below about -50%; inconclusive means about -30% to -50%; inactive means above about -30%;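 also: stimulus is agonist 54-4 at its EC80 concentration; % is scaled to controls: 0 for no effect and ±100 for the full control effect; the text of the record puts the active cut at -80%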
# Target sequence (Q9GZU1 whole entry, looked up): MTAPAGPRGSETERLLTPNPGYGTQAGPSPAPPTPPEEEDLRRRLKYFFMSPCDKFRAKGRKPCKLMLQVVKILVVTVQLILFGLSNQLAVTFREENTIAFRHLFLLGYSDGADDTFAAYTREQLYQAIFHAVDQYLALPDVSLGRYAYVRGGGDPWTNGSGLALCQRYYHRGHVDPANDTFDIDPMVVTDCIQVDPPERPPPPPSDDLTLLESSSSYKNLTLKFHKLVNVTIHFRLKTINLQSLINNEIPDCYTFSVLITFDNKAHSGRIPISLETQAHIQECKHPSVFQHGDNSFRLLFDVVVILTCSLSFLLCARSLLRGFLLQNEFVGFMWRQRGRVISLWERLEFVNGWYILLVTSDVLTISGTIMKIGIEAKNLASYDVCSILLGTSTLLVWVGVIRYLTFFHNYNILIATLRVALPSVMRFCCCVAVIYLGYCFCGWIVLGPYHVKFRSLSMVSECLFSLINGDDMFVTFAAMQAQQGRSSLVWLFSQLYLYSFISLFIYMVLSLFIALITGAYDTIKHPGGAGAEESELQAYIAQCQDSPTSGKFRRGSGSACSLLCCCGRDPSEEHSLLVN
#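 TRPML1-DL cells, Tet-induced overnight (~16 h, 37 °C) at 1,500 cells/well, were loaded with Ca8 no-wash dye plus quencher for 45-90 min at room temperature. Compounds were pinned during FDSS kinetic reading; agonist 54-4 at EC80 (4 uM final) then added.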
# TRPML1 agonist: agonists of human TRPML1 channel. 0.12% of 410,000 active. Q9GZU1. activation, % (concentration not given with the values). TRPML1-expressing cells, Ca2+ dye fluorescence, FDSS; host cell line not named in the record; reference of the full effect not given here; in the data active = activation above about 50%; inconclusive = about 30% to 50%; inactive = below about 30%; also: 0% is about no effect; the text of the record puts the active cut at 80%
#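 Tet-induced TRPML1-DL cells, 1,500 per well, cultured overnight, were loaded with a no-wash Ca2+ dye for 45–90 min. Calcium fluorescence was recorded on the FDSS for 110 s after compound addition, before the EC80 agonist (4 uM 54-4) was added.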
# * = called active by the depositor; ? = inconclusive; nt = no result given; & = joins results of further samples; [ ] = dose if it differs, or a comment.
SMILES,gsp antag,Menin MLL FP FL,gsp ag,ClpP mod,TRPML1 inh,TRPML1 agonist
CN1C(=O)C(C)(C)c2cc(S(=O)(=O)N3CCN(c4ccc(F)cc4)CC3)ccc21,-13.4%,-3.0,23.2%,0.0%,11.8,-0.9
C#CCOCCOCCOCCNc1nc(N2CCN(C(=O)[C@H](CCCN=C(N)N)n3cc(C(N)[C@@H](C)CC)nn3)CC2)nc(N2CCN(C(=O)[C@H](CCC(=O)O)n3cc([C@@H](N)CCCCN)nn3)CC2)n1 (stereo partly specified),2.5%,nt,nt,1.1%,22.9,-0.6
CCC(C)NC(=O)CN(C1CCCCC1)S(C)(=O)=O (stereo unspecified),11.6%,-1.4,-55.3%[inhibitor],nt,-12.3,0.0
C/C(N)=C(/C#N)C(=O)CSc1ncnc2ccccc12,18.2%,?,-0.7%,0.5%,0.3,1.1
COc1ccc(-c2cnc(N)n2CC2CCCO2)cc1 (stereo unspecified),10.7%,-0.4,-96.5%[inhibitor],-5.4%,0.5,-0.9
Cn1cnc(S(=O)(=O)N2CCc3ccccc32)c1,10.9%,0.8,-30.2%[inhibitor],-1.3%,2.1,-0.9
Cc1ccccc1-n1ncc2c1CC(C)(C)CC2NC(=O)CCCN1CCCC1=O (stereo unspecified),6.7%,nt,-0.9%[15.4 µM],-0.7%,-6.9,0.5
O=S(=O)(c1ccc(Cl)nc1)N1CCc2ccccc21,2.8%,1.6,-11.5%,-0.1%,nt,nt
COc1ccc(C(=O)O/N=C(\N)c2ccc(OC)c(OC)c2)c(OC)c1,1.4%,1.1,6.5%,4.5%,-13.0,-0.8
CC1CCCc2sc3nc(NCc4ccco4)n4ncnc4c3c21 (stereo unspecified),0.8%,3.8,12.7%,?,30.8,0.6
CC(C)(C)NC(=S)NCc1cccnc1,12.1%,1.9,-31.2%[inhibitor],0.2%,51.9,3.4
Cc1ccc(Cl)cc1N1CCN(S(=O)(=O)c2ccc3c(c2)OCCO3)CC1,4.0%,2.4,15.9%,0.3%,30.2,2.4
Cc1ccc(S(=O)(=O)N(C)C[C@@H]2OCc3cn(nn3)CCCC(=O)N([C@H](C)CO)C[C@H]2C)cc1,nt,nt,nt,-3.8%,-0.6,0.3
CCc1nnc(NC(=O)c2ccc3nc(CC)c(CC)nc3c2)s1,-15.4%,3.8,-2.2%[15.4 µM],-2.2%,16.4,-0.7
O=C(N/N=C/c1ccc[nH]1)c1cc2ccccc2cc1O,-9.2%,20.2,-81.6%[inhibitor],0.0%,19.1,2.4
Cc1ccc(C)c(-c2nnc(NC(=O)Cc3ccccc3)o2)c1,11.6%,nt,8.2%,1.3%,-6.6,0.0
Cc1ccc2c(c1)N(C(=O)CCC(=O)NCCCN(C)Cc1ccccc1)CCO2,8.3%,-5.7,?,-0.6%,4.9,-0.1
Cc1ncc(CN2CCC(CO)(CCc3ccccc3)CC2)s1,12.1%,-3.5,-5.4%,-4.8%,59.5,-0.2
O=C(Nc1cccnc1)Nc1ccc(F)c(Cl)c1,4.9%,-1.1,17.9%,-1.6%,4.7,0.6
COc1cc(OC)c(NC(=O)Cn2c(=O)oc3cc(S(=O)(=O)N4CCCC4)ccc32)cc1Cl,nt,nt,nt,-11.2%,14.2,-0.1
Cc1cc(OCC(=O)Nc2ccc3oc(-c4ccncc4)nc3c2)ccc1Cl,50.1µM*,3.4,2.5%,-15.4%,19.7,-0.4
COc1ccc(S(=O)(=O)n2cnc3ccccc32)cc1,2.6%,-2.5,2.2%[15.4 µM],1.3%,5.4,-0.5
CCCC(=O)NC(Nc1ccccc1OC)C(Cl)(Cl)Cl (stereo unspecified),1.9%,1.5,4.6%,-0.8%,-9.8,1.1
CC(C)Oc1ccc(CCC(=O)NNC(=O)c2ccccc2C(=O)O)cc1,-0.5%,-1.3,27.6%,nt,-8.8,2.8
C[C@H]1CN([C@@H](C)CO)C(=O)CCCn2nncc2CO[C@H]1CN(C)S(=O)(=O)c1ccccc1,nt,nt,-21.0%,0.4%,21.3,-0.2
CC1CCN(C(=O)CSc2nc(C3CC3)nc3ccccc23)CC1,5.1%,0.0,?,nt,-7.3,1.4
NS(=O)(=O)c1ccc(CCNC(=O)CCCn2c(=O)[nH]c3ccc(Br)cc3c2=O)cc1,14.9%,-4.5,-9.3%,nt,-14.5,-0.9
COC(=O)c1scc(C)c1NC(=O)C1CCCCC1,?,2.6,11.2%,-3.4%,-1.2,0.8
COc1ccc(NC(=O)CSc2nnc(C3CCCCC3)n2N)c(OC)c1,1.0%,4.5,?,0.1%,-5.2,-0.4
COc1ccc(N2CCN(C(=O)CSc3c4c(nc5ccc(Cl)cc35)CCCC4)CC2)cc1,nt,nt,nt,-9.4%,12.6,1.9
CCN(C(=O)c1ccc(S(=O)(=O)N2CCCC2)cc1)C1CCS(=O)(=O)C1 (stereo unspecified),-9.6%,nt,-0.8%,-0.8%,7.0,0.8
CCC(C)C(NS(=O)(=O)c1ccc(C)cc1)C(=O)N1CCOCCOCCOCC1 (stereo unspecified),4.9%,-4.8,3.9%,nt,9.6,-0.6
CC(=O)N1CC=CC1(CC(C)C)C(=O)NCCc1c[nH]c2ccccc12 (stereo unspecified),3.1%,1.4&-2.0,-62.3%[inhibitor],1.9%,-21.8,-0.5
O=C(Nc1ccc2c(c1)OCCO2)c1cc2sccc2n1Cc1ccc(F)cc1,-4.7%,1.9,-22.9%,?,-8.4,-0.5
COc1ccc(N2C(=O)N3[C@@H]4c5ccccc5OC[C@@H]4[C@@H](c4ccccc4)[C@@]3(C)C2=O)cc1,-4.8%,nt,-0.1%,-2.0%,32.0,0.9
CCCC(=O)Nc1ccc2nc(SCC(=O)Nc3ccc(N4CCOCC4)c(Cl)c3)sc2c1,-2.4%,3.2,0.0%,-3.7%,-9.6,-0.6
O=C(NCc1ccc(Cl)cc1)c1cc([N+](=O)[O-])ccc1Cl,12.4%,-6.5,?,-0.5%,-13.1,1.3
N#Cc1ccc(NC(=O)N2CCC(c3nc4c(nnn4Cc4cccc(Cl)c4)c(=O)[nH]3)CC2)cc1,-9.8%,7.7,-1.0%,1.0%,12.9,2.3
Cc1ccc(CNC(=O)c2ccc(CS(=O)(=O)c3ccccc3)o2)cc1,-3.9%,nt,-5.2%,-0.1%,6.9,0.1
COC(=O)c1cc(OC)c(OC)cc1NC(=O)CCCCCN1C(=O)CCC1=O,0.1%,3.0,5.8%,28.2µM*,2.0,-0.7
O=C(CSc1nc2ccccc2nc1N1CCCCC1)N1CCN(c2ccccc2)CC1,-16.3%,1.2,10.0%,-22.8%,12.5,0.0
CN(CC(=O)Nc1ccccc1Br)C(=O)CNC(=O)c1ccco1,12.6%,nt,-6.3%,-1.6%,-16.7,0.2
O=C(CCCOc1ccc(Cl)cc1Cl)NN1CCOCC1,-2.2%,4.4,-32.9%[inhibitor],1.0%,-11.3,-0.3
COC(=O)CSc1nc2cc(C)cc(C)c2cc1C#N,-6.0%,?,13.9%,-1.8%,14.4,4.0
COc1ccccc1CNC(=O)c1cccc(C)c1[N+](=O)[O-],22.1%,-2.0,0.4%,1.1%,-7.5,0.5
CCOC(=O)C(Cc1ccccc1)C(=O)c1ccco1 (stereo unspecified),0.6%,nt,nt,-0.7%,13.0,-0.7
COc1cc(NC(=O)CSc2nc3nc(C)c(Cc4ccc(C)cc4)c(C)n3n2)cc(OC)c1,nt,nt,nt,?,-6.9,-0.4
COc1cccc(CNC(=O)Cn2c(=O)cc(C)c3c(C)nn(C)c32)c1OC,nt,nt,nt,-3.4%,-1.0,-0.9
COc1ccccc1NC(=O)N(C)C[C@@H]1OCc2cnnn2CCCC(=O)N([C@@H](C)CO)C[C@H]1C,nt,nt,-42.1%[inhibitor],0.8%,-10.1,0.2
CCN(CC)CC#CCOC(=O)C(O)(c1ccccc1)C1CCCCC1 (stereo unspecified),-9.9%,-1.2&1.0,nt,-9.8%,-17.1,-0.8
# Next part
SMILES,gsp antag,Menin MLL FP FL,gsp ag,ClpP mod,TRPML1 inh,TRPML1 agonist
O=C(CSc1nnc(-c2ccccn2)n1-c1ccc(Cl)cc1)Nc1ccc2c(c1)OCO2,17.9%,-1.4,-34.0%[inhibitor],-0.3%,-0.2,0.7
O=C(c1ccccc1)c1cn[nH]c1-c1ccccc1O,10.2%,0.7,-5.0%,-1.8%,-12.1,0.1
O=C1CC(c2ccccc2)N1c1ccccc1 (stereo unspecified),-3.6%,-1.4,0.0%,-2.5%,2.0,-0.5
O=C(COC(=O)c1cccc(S(=O)(=O)N2CCc3ccccc32)c1)NCc1ccco1,-13.1%,0.7,-11.5%[15.4 µM],nt,-7.4,1.4
O=C1CCSC2(C(=O)N(Cc3ccc(F)cc3)c3ccccc32)N1c1ccc(F)c(F)c1 (stereo unspecified),nt,nt,nt,-0.3%,-26.7,1.8
CCOC(=O)C1=C(C)NC(=O)NC1c1cn(-c2ccccc2)nc1-c1ccc(OCC)cc1 (stereo unspecified),nt,nt,nt,-1.5%,-2.9,2.3
Cc1[nH]n(-c2ccc(Cl)c(Cl)c2)c(=O)c1CCO,3.0%,-0.6,3.2%,nt,-3.0,0.7
CC1CCCN(S(=O)(=O)c2cccc3nonc23)C1 (stereo unspecified),5.6%,nt,?,-1.5%,-18.1,-0.5
CCOC(=O)C1=NN(C(=O)c2ccccc2)C(O)(c2ccc(C)cc2)C1 (stereo unspecified),-12.2%,15.5,-4.7%[15.4 µM],nt,54.8,5.5
O=C(NCC1CCCO1)C(c1ccncc1)N(Cc1cccs1)C(=O)CN1C(=O)c2ccccc2S1(=O)=O (stereo unspecified),-8.4%,0.3,17.7%[15.4 µM],nt,1.4,0.4
O=C1N2CCSC2=NC1(NS(=O)(=O)c1ccccc1)C(F)(F)F (stereo unspecified),-2.8%,0.1,-0.3%,-1.3%,7.4,-0.7
Clc1ncc(CN2CCN(c3ccccc3)CC2)s1,8.2%,7.5,?,-0.3%,3.3,-0.7
Cc1cc(C(=O)N2CCC(Cc3ccccc3)CC2)c(C)o1,1.8%,3.7,?,-0.6%,3.2,0.7
O=C(O)CCNS(=O)(=O)c1ccc(Oc2ccccc2)cc1,-7.4%,-1.9,-7.7%,0.5%,-7.4,0.0
Cc1onc(-c2ccccc2Cl)c1C(=O)N(Cc1ccccc1)C(C)C,-4.8%,-6.2,-28.6%,nt,42.8,2.6
O=C(NCc1ccncc1)Nc1cc(Cl)ccc1Cl,1.5%,0.9,-62.8%[inhibitor],0.4%,14.3,0.1
Cc1ccc(NC(=O)N(Cc2cc3cc(C)cc(C)c3[nH]c2=O)CC2COCCO2)cc1 (stereo unspecified),-19.3%,0.0,-24.0%,-8.3%,-8.7,-0.2
Cc1cc(C)n(CCOC(=O)c2sc3ccccc3c2Cl)n1,9.6%[15.4 µM],-0.9,?,-2.6%,-7.5,0.8
Cn1nnc2cc(C(=O)NC3CC3)ccc21,10.2%,-1.0,-39.6%[inhibitor],-0.5%,-11.6,0.4

# An unsorted share of the library. About 2.1% of those tested had a hit in this group.
